HSV augment – HSV replication enhancement | HSV replication augmentation in cells, fold increase | maximum fold increase | 0.005% of 220,000 active;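 active means peak rise of 1.5-fold or more in the series; inconclusive means self-fluorescent or not available for retest; tested in PC3 cells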;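 further: first round at 10 µM; read as green reporter fluorescence; hits show the peak of a series up to 25 µM; 1 = signal of infected wells without compound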
GALR2 ag – activates the human galanin receptor 2; O43603; GALR2-expressing cells, agonist activation read-out; activation, %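 (tested at 5 µM)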; 0.48% of 140,000 active;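 active means above mean plus 3 SD of all compounds, about 5% in these data, not always enough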;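 further: 0% = vehicle buffer wells and 100% = reference agonist at full effect; tested in CHO reporter cells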
Target sequence (O43603 whole entry, looked up): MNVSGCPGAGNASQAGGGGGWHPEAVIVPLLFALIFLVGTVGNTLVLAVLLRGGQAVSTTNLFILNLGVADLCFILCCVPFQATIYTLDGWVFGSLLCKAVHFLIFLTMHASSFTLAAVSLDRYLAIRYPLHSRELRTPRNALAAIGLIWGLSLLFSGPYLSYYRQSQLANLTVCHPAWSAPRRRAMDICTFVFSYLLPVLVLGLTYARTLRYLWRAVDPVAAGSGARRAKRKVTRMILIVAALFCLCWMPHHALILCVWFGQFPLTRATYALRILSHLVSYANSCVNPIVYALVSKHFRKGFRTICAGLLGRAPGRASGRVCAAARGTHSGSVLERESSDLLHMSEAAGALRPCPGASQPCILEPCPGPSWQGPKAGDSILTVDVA
Insulin prom inh – TRM-6 insulin promoter activity inhibition | 0.9% of 130,000 active | TRM-6 cells (human fetal islet line), insulin promoter-eGFP reporter, imaging; reporter expression induced with tamoxifen | inhibition, % at 2 µM;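 active means inhibition above the mean plus 3 SD, with well images judged a real hit on visual review, cut at about 60% in these data, passing the limit was not always enough; inconclusive means inhibition over the cutoff but images rejected on review; inactive means inhibition not above the cutoff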
RGS16-Gao – regulators of human RGS16-Galphao interaction. O15492+P09471. binding response (% of control), % at 10 µM. bead-based flow cytometry RGS16-Galphao binding, fluorescence; actives lie on both sides. 0.38% of 220,000 active;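 active means below 25% or above 175%, edge rows of some plates excepted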;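 further: Galphao activated by GDP with aluminum fluoride before binding; 100% = wells without compound and 0% = beads without RGS; some results beyond the cut were filed as inactive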
Target sequence (O15492 whole entry, looked up): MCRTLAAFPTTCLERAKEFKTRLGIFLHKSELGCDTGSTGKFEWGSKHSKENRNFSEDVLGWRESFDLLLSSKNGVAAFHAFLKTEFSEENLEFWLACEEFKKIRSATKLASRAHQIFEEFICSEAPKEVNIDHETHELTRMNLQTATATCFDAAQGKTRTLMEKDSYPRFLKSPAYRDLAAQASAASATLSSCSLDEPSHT
Target sequence (P09471 whole entry, looked up): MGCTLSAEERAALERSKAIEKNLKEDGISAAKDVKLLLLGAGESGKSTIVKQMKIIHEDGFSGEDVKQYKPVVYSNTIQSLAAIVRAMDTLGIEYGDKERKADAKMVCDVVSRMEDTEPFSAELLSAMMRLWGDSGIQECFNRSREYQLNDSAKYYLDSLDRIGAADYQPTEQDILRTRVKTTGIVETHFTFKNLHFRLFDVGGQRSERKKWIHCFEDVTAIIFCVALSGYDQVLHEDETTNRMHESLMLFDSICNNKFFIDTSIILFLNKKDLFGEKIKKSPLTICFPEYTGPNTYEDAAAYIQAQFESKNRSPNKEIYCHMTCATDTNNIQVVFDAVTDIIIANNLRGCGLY
PKD1 inh – PKD1 (human) kinase inhibition; 0.056% of 200,000 active; inhibition, %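 (about 10 µM by stock and volumes)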; Q15139; PKD1 kinase fluorescence polarization assay;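 active means inhibition of 50% or more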;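 further: controls were vehicle for no effect and a reference inhibitor for full effect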
Insulin prom inh cell count – also measured in Insulin prom inh; calls as there; normalized cell count, %; measured here: cell count, toxicity; reference of the scale not given here;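 cells exposed to compound for 48 h; stained nuclei by imaging scaled within each plate; lower means fewer cells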
HSV augment primary fold – also measured in HSV augment; calls as there; fold increase; compound at 10 µM; measured here: primary screen fold increase 10 uM; tested in PC3 cells;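 GFP signal in the first replicate; 1 = infected wells without compound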
An asterisk follows results filed as active; i = inactive; ? = inconclusive; / = no result given. Random draw from the library; any-hit rate near 1.3%.

Below each SMILES – HSV augment | HSV augment primary fold | GALR2 ag | Insulin prom inh | Insulin prom inh cell count | RGS16-Gao | PKD1 inh
O=C(NC(c1ccccc1)c1ccccc1)c1cccc(S(=O)(=O)NCc2ccccc2)c1
→ i | 0.8 | -0.8 | / | / | 106 | -3
O=S1(=O)CC2NC(=S)N(c3cccc(Br)c3)C2C1 (configuration not stated)
→ i | 0.95 | / | / | / | 98 | /
CCCC(=O)Nc1ccc(OCC(=O)OC)cc1
→ i | 0.98 | -1.1 | -371 | 47 | 94 | -1
O=c1c2cnn(-c3ccc(F)cc3)c2ncn1Cc1cccnc1
→ i | 0.95 | -1.4 | / | / | 104 | 20
CC(=O)Oc1cc2c(C(=O)NCc3ccncc3)c(C)oc2c2ccccc12
→ i | 0.85 | / | / | / | 101 | /
COc1ccc(CNC(=S)N/N=C(\C)c2ccc(OC)cc2)cc1
→ i | 1.2 | / | / | / | 99 | /
COC(=O)Cc1ccc(OCc2ccc(Cl)nc2)cc1
→ i | 0.98 | / | / | / | 106 | 0
O=C(NC1(C(F)(F)F)NC(=O)N(c2ccc(F)c(Cl)c2)C1=O)c1ccncc1 (configuration not stated)
→ i | 0.89 | -2.0 | 27 | 118 | 78 | 0
Cc1ccc(NS(=O)(=O)c2cccc(C(=O)O)c2)cc1S(=O)(=O)N1CCOCC1
→ i | 1 | -1.6 | 13 | 39 | 104 | 2
COC(=O)c1c(NC(=O)CSc2ccccc2N)sc(C)c1C
→ i | 0.92 | / | -56 | 118 | 101 | 5
COc1ccc(S(=O)(=O)NCCC(=O)NC(C)c2ccccc2)cc1 (configuration not stated)
→ i | 1 | -0.9 | 46 | 178 | 98 | -3
O=C(Cc1ccc(-c2ccccc2)cc1)NCc1ccccc1
→ i | 0.59 | 2.0 | -164 | 7 | 99 | 1
Cc1nc2ccccc2n1C1CCN(CC(=O)Nc2ccccc2Br)CC1
→ i | 0.83 | / | / | / | 188 | -4
COc1ccc(C(=O)Nc2ncc3c(n2)-c2ccccc2CC3)cc1
→ i | 0.93 | -1.6 | / | / | 145 | 2
CCOC(=O)C(=O)N1CCC(C(=O)OCC)CC1
→ i | 0.89 | / | / | / | 99 | /
Cc1ccc(/C=N/n2c(C)cc(C)c(C#N)c2=O)cc1
→ i | 0.76 | -3.2 | -60 | 101 | 108 | -11
CC(C)NC(=O)c1ccc(CS(=O)(=O)c2ccc(Br)cc2)o1
→ i | 1.1 | -1.7 | / | / | 106 | -5
O=C1CC(c2cccc(Cl)c2)c2cc3c(cc2N1)CCC3 (configuration not stated)
→ i | 0.9 | -1.8 | / | / | 103 | -4
CC1(C)CC(=O)C/C(=N/NC(=O)COc2ccc(Cl)cc2Cl)C1
→ i | 1 | / | / | / | 103 | /
COc1ccc(CSCC(=O)Nc2ccc(S(=O)(=O)N3CCCCCC3)cc2)cc1
→ i | 0.96 | 0.3 | / | / | 100 | -5
O=C(NCCC1=CCCCC1)C1CCCN(S(=O)(=O)c2ccc(F)cc2)C1 (configuration not stated)
→ i | 1 | -2.1 | -275 | 55 | 103 | 3
O=c1[nH][nH]c2ccccc2c1=O
→ i | 1 | / | / | / | 99 | /
O=C(NCc1ccc(F)cc1)C(=O)Nc1nc(C23CC4CC(CC(C4)C2)C3)cs1
→ i | 0.91 | -0.6 | -59 | 72 | 93 | 0
C(=N\N(Cc1ccccc1)c1ccccc1)/c1cccnc1
→ i | 0.93 | / | -24 | 116 | 96 | 1
Cc1cc(-c2ccccc2C(=O)NC2CCCCC2)on1
→ i | 0.94 | / | / | / | 89 | /
COC(=O)c1ccccc1N=Nc1c(N)[nH][nH]c1=O
→ i | 1.1 | / | / | / | 95 | /
CC1CCN(S(=O)(=O)c2ccc(C(=O)OCc3ccc4c(c3)OCO4)cc2)CC1
→ i | 0.89 | -2.6 | 35 | 98 | 100 | 3
CCC(=O)Nc1cccc(NC(=O)c2ccc(Br)cc2)c1
→ i | 0.97 | 0.8 | -23 | 155 | 97 | -2
CCOc1ccc(NC2=C(OC)C(=O)c3ccccc3C2=O)cc1
→ i | 0.94 | -2.8 | -4 | 128 | 76 | 2
O=P(c1ccccc1)(c1ccccc1)C(c1ccccn1)P(=O)(c1ccccc1)c1ccccc1
→ i | 0.9 | / | / | / | 100 | /
Cn1cccc1C(=O)OCC(=O)NC1CCS(=O)(=O)C1 (configuration not stated)
→ i | 0.95 | / | / | / | 99 | -4
COc1ccccc1OCC(=O)NCc1cccs1
→ i | 0.84 | -3.0 | -29 | 33 | 103 | -6
CC(=O)n1nc2nc(C)cc(C)c2c1N
→ i | 1.1 | 0.2 | 0 | 98 | 109 | 0
CC(C)C(NC(=O)C1CCCCC1)C(=O)NC1=NCCS1 (configuration not stated)
→ / | / | -1.8 | -57 | 129 | 82 | 3
COc1ccc(C2CC(c3ccccc3)=NN2C(=O)CSc2ncn[nH]2)cc1 (configuration not stated)
→ i | 0.93 | / | / | / | 95 | 7
Cc1cccc(C)c1OCC(O)CN1CCN(c2ccccn2)CC1 (configuration not stated)
→ i | 1.1 | / | / | / | 97 | -7
COc1ccc(C(=O)Oc2ccc3c(C)cc(=O)oc3c2C(C)=O)cc1
→ i | 0.92 | -1.2 | -19 | 113 | 99 | -4
N#CCC(=O)Nc1ccc(C(=O)NCc2ccccn2)cc1
→ i | 0.92 | / | 45 | 112 | 34 | -7
COCCN(C(=O)C1CC1)c1nnc(-c2cccc(C)c2)s1
→ i | 0.8 | -3.2 | -182 | 96 | 101 | -12
O=C1CN(c2nc(-c3ccccc3)c3ccccc3n2)c2ccccc2N1
→ i | 0.93 | -0.1 | / | / | 140 | 1

Reformatted with each value named: entries from further up.
SMILES: COc1ccccc1OCC(=O)NCc1cccs1
- HSV augment: i
- HSV augment primary fold: 0.84
- GALR2 ag: -3.0
- Insulin prom inh: -29
- Insulin prom inh cell count: 33
- RGS16-Gao: 103
- PKD1 inh: -6

SMILES: CC(=O)n1nc2nc(C)cc(C)c2c1N
- HSV augment: i
- HSV augment primary fold: 1.1
- GALR2 ag: 0.2
- Insulin prom inh: 0
- Insulin prom inh cell count: 98
- RGS16-Gao: 109
- PKD1 inh: 0

3 neighbouring compounds already listed, for reference:
Below each SMILES – HSV augment | HSV augment primary fold | GALR2 ag | Insulin prom inh | Insulin prom inh cell count | RGS16-Gao | PKD1 inh
N#CCC(=O)Nc1ccc(C(=O)NCc2ccccn2)cc1
→ i | 0.92 | / | 45 | 112 | 34 | -7
COCCN(C(=O)C1CC1)c1nnc(-c2cccc(C)c2)s1
→ i | 0.8 | -3.2 | -182 | 96 | 101 | -12
O=C1CN(c2nc(-c3ccccc3)c3ccccc3n2)c2ccccc2N1
→ i | 0.93 | -0.1 | / | / | 140 | 1

Further entries
Below each SMILES – HSV augment | HSV augment primary fold | GALR2 ag | Insulin prom inh | Insulin prom inh cell count | RGS16-Gao | PKD1 inh
O=C(Nc1cccc(S(=O)(=O)Nc2ccc(Cl)cc2)c1)c1ccc(Cl)nc1
→ i | 0.76 | -0.1 | / | / | 108 | -5
CCOc1ccc(NC(=O)c2cccnc2C(=O)O)cc1
→ i | 1.3 | -0.6 | 50 | 111 | 104 | -10
Cc1ccc(C(c2nnnn2CCc2ccccc2)N2CCSCC2)cc1 (configuration not stated)
→ / | / | -1.9 | -7 | 115 | 102 | -8
O=c1ccnc(Sc2ncccc2[N+](=O)[O-])[nH]1
→ i | 0.96 | -2.3 | -278 | 93 | 98 | -6
C=CCn1c(COC)nnc1SCC(=O)c1ccc(F)cc1
→ i | 1.1 | -0.9 | 12 | 106 | 102 | -9
CCOC(=O)Cc1cnc(NC(=O)CSc2nc3ncnc(N)c3[nH]2)s1
→ i | 0.91 | / | 53 | 102 | 104 | -5
Cc1nn(-c2nnc(NC3CCCCC3)nn2)c(C)c1Br
→ i | 0.89 | -0.5 | -8 | 78 | 103 | -4
Cc1ccc(Oc2ncccc2/C=N/OCc2ccc(Cl)cc2Cl)cc1
→ i | 0.88 | -2.6 | 24 | 105 | 106 | -4
COc1ccc(C(=O)Nc2cnn(Cc3ccc(Cl)cc3)c2)cc1OC
→ i | 0.85 | -1.5 | -31 | 51 | 110 | 5
CCNC(=S)Nc1nc2c(cc1C(=O)OCC)CCCC2
→ i | 1 | -0.7 | -11 | 118 | 100 | 9

Looked up above:
Cc1nn(-c2nnc(NC3CCCCC3)nn2)c(C)c1Br in RGS16-Gao: 103
CCNC(=S)Nc1nc2c(cc1C(=O)OCC)CCCC2 in HSV augment primary fold: 1
C=CCn1c(COC)nnc1SCC(=O)c1ccc(F)cc1 in HSV augment primary fold: 1.1
O=C(Nc1cccc(S(=O)(=O)Nc2ccc(Cl)cc2)c1)c1ccc(Cl)nc1 in PKD1 inh: -5

More structures
smiles,HSV augment,HSV augment primary fold,GALR2 ag,Insulin prom inh,Insulin prom inh cell count,RGS16-Gao,PKD1 inh
O=S(=O)(NCc1csc(-c2cccs2)n1)c1ccccc1,i,1,/,/,/,94,/
O=C(CCc1ccccc1)NNC(=O)C1CCCCC1,i,0.94,7.0,8,92,88,7
CC(C)Oc1ccc(-c2cc(=O)[nH]c(=O)[nH]2)cc1,i,0.96,-1.8,14,84,95,0
COC(=O)c1cc(-c2ccccc2)sc1N,i,1.1,-1.1,25,201,51,4
CC(=Nc1ccccc1)C1=C(O)CC(C)(C)CC1=O,i,0.97,/,/,/,100,5
CCOC(=O)Cc1csc(SCC(=O)Nc2cccc(C#N)c2)n1,i,1.1,-1.4,-6,96,102,5
O=C1c2ccccc2C(=O)N1CCCn1c(=O)oc2ccccc21,i,0.88,-1.0,31,117,98,-4
COc1ccc2[nH]c(=O)c(CN(C(=O)c3cccnc3)c3ccc(C)c(C)c3)cc2c1,i,0.93,/,/,/,94,/
COc1ccc(-c2csc(NC(=S)NC(=O)/C=C/c3ccco3)n2)cc1Br,i,0.66,/,/,/,98,/
O=C(CSc1ccccn1)Nc1ccc2c(c1)OCO2,i,0.91,/,/,/,105,/
CCc1ccc(NC(=S)N(Cc2cccnc2)Cc2ccco2)cc1,i,0.83,/,-92,119,106,-2
COc1ccc([N+](=O)[O-])cc1C(=O)Nc1ccc(OCC(=O)N2CCOCC2)cc1,i,0.88,-0.6,28,167,98,-13
CCC(C)[C@@H](C(=O)NCC1CCC(C(=O)O)CC1)n1nnc2ccccc2c1=O (some centres not stated),/,/,-1.3,31,50,92,11
CNS(=O)(=O)/C=C/c1ccccc1,i,0.95,/,/,/,108,1
O=c1c2ccccc2[nH]c2ccccc12,i,0.94,5.6*,9,136,49,6
CCCCOC(=O)CCN1C(=O)/C(=C2\SC(=S)N(CCC(=O)OCCCC)C2=O)SC1=S,?,/,-1.8,/,/,96,-1
Cc1cc(SCCOc2ccccc2)nc(N)n1,i,0.73,0.2,49,60,103,-6
CCS(=O)(=O)c1ccc2c(c1)N(S(C)(=O)=O)CC(C(=O)NCc1ccccc1OC)O2 (configuration not stated),i,0.91,3.3,23,105,98,-7
NC(=O)c1ccccc1OCC(=O)c1ccc(Cl)cc1,i,0.98,/,/,/,99,6
O=C(Nc1nc2ccccc2[nH]1)c1cccc(S(=O)(=O)N2CCOCC2)c1,i,1,-0.9,-27,65,101,3
CN(C)Cc1cc(CCNC(=O)c2ccc(Cl)cc2)ccc1O,i,0.92,-1.9,/,/,96,-3
CC1CC(=O)Nc2ccccc2N1C(=O)Nc1ccc(F)cc1F (configuration not stated),i,0.94,/,/,/,99,/
O=C(CN1C(=O)COc2ccccc21)N(Cc1cccnc1)Cc1ccccc1F,i,0.92,0.1,-5,108,104,-13
COC(=O)c1c(C)oc(C)c1S(=O)(=O)Nc1ccc(C(C)C)cc1,i,0.86,/,/,/,105,/
CC1CCCC(NC2CCCCNC2=O)C1 (configuration not stated),i,0.79,1.2,31,59,98,-6
Cc1cccc(C2Nc3ccccc3C(=O)N2NC(=O)c2ccc([N+](=O)[O-])cc2)n1 (configuration not stated),i,0.97,-1.1,24,102,77,4
COc1cccc(/C=N/n2c(N)nc3ccccc32)c1OC,i,0.59,-0.8,20,121,110,10
Cc1cc(=O)n2nc(N3CCC(C(=O)NC(C)c4ccccc4)CC3)sc2n1 (configuration not stated),i,0.86,0.3,-23,136,101,-5
COC(=O)NC(=S)Nc1ccc(Oc2ccc(Cl)cc2Cl)c(Cl)c1,i,1,0.8,-37,141,33,-6
CC1Oc2ccccc2N(CC(=O)NCc2ccccc2)C1=O (configuration not stated),i,1,/,/,/,104,-4
Cc1cc(N2C(=O)C3CC=CC(C)C3C2=O)no1 (configuration not stated),i,0.79,-1.5,-312,71,101,-1
O=C(CSc1ccc2c(c1)OCCO2)Nc1cccnc1Cl,i,0.94,/,14,80,101,-2
CCOC(=O)N1CCN(CC(O)COc2c(C)cccc2C)CC1 (configuration not stated),i,1.1,-0.5,9,40,101,4
CSc1ccc(-c2nc(CSCC(=O)NCCCN3CCOCC3)c(C)o2)cc1,i,0.77,-1.7,-31,34,108,-4
FC(F)(F)c1ccc(-c2csc(-c3ccno3)n2)cc1,i,0.96,/,/,/,102,/
